MITF inhib = MITF inhibition; AID 2240; actives 0.28% (n = 37,000); TRPM1 promoter luciferase, luminescence, 24 h; inhibition, % (test concentration not listed);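 active means most replicates at 85% or more, or half of them and the mean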;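 further: human melanocyte line stably carrying TRPM1 promoter luciferase reporter; 0% = vehicle wells and 100% = a positive control; the first replicate is given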
YB-1 expr inh = YB-1 expression inhibition; actives 0.37% (n = 30,000); delta delta Cp (YB-1 minus CDIP) (concentration not given with the values); U2OS, qRT-PCR YB-1 vs CDIP delta delta Cp, 16 h; stronger effect = higher value; zero = DMSO, each unit about twofold;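 active means delta delta Cp rounded down to an integer at or above 3, about 3 SD of DMSO wells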;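 further: higher means less YB-1 transcript or more CDIP transcript relative to DMSO; stock transfer was 100 nL into about 100 µL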
PD-1 reversal = reversal of PD-1 mediated T-cell inhibition; 29,000 tested, under 10 active; activation, % (concentration not given with the values); primary human CD4 T cells, PD-L1 beads, CellTiter-Glo 96 h; AID 2316;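 active means replicate mean of 50% or more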;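 further: 0% = median vehicle wells and 100% = positive control; 100 nL library stock added to about 50 µL; numbers are from one replicate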
Shh pathway inh = blocks Sonic Hedgehog signaling; actives 2.1% (n = 22,000); inhibition, % (concentration not given with the values); Shh-LIGHT2 Gli-luciferase reporter, 30 h;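 active means replicate mean of 65% or more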;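 further: pathway switched on by Shh-conditioned medium diluted 1 in 25 in low serum; 100 nL library stock added to about 40 µL; 0% = median of neutral wells and 100% = positive control level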
* = called active by the depositor; . = no result given.

Below each compound – MITF inhib	PD-1 reversal	Shh pathway inh	YB-1 expr inh
1. COc1ccc(NC(=O)N(C)C[C@@H]2Oc3c(NC(=O)NC4CCCCC4)cccc3C(=O)N([C@@H](C)CO)C[C@@H]2C)cc1
→ 2	0.4	-31	-0.19
2. COc1ccc(S(=O)(=O)N(C)C[C@H]2Oc3ccc(NS(C)(=O)=O)cc3C(=O)N([C@H](C)CO)C[C@H]2C)cc1
→ -6	0.1	.	-0.039
3. Cc1ccc(-n2c(SCC(=O)Nc3ccc(F)c(Cl)c3)nnc2-c2ccco2)cc1
→ 35	-4.2	.	.
4. O=c1c(O)c(-c2ccc(O)cc2)oc2cc(OC3O[C@H](CO)[C@@H](O)[C@H](O)[C@H]3O)cc(O)c12 (stereo partly drawn)
→ -9	0.3	25	0.98
5. CC(=O)Oc1ccc2c(c1C(C)C)CCC1C(C)(C)CCC[C@]21C (stereo partly drawn)
→ -16	.	-33	0.32
6. C[C@@H]1CN([C@H](C)CO)C(=O)c2cccc(NC(=O)Nc3cccc4ccccc34)c2O[C@@H]1CN(C)S(=O)(=O)c1ccc(Cl)cc1
→ -3	.	4	0.12
7. Cc1noc(C)c1NC(=O)Nc1ccc2c(c1)CC(=O)N([C@@H](C)CO)C[C@H](C)[C@H](CN(C)C(=O)Nc1ccc3c(c1)OCO3)O2
→ 4	2.1	-15	0.21
8. C[C@@H]1CN([C@H](C)CO)C(=O)Cc2cc(NC(=O)Nc3ccc(F)cc3)ccc2O[C@@H]1CN(C)S(C)(=O)=O
→ -1	-1.5	-30	-0.6
9. COc1ccc(NC(=O)N(C)C[C@H]2Oc3ccc(NS(C)(=O)=O)cc3C(=O)N([C@@H](C)CO)C[C@@H]2C)cc1
→ 1	.	.	0.32
10. COc1c2occc2c(OC)c2c(=O)cc(CO[C@@H]3O[C@H](CO)[C@@H](O)[C@H](O)[C@H]3O)oc12
→ -12	-0.2	-10	0.54
11. O=[N+]([O-])c1cccc(CN(CCO)Cc2ccccc2)c1
→ -6	-0.5	.	.
12. COc1ccc(CN(C)C[C@H]2Oc3ccc(NC(=O)C4CC4)cc3C(=O)N([C@@H](C)CO)C[C@@H]2C)cc1
→ 0	2.7	.	-0.064
13. CC[n+]1c(C=C2C=C(C)CC(C)C2)sc2ccccc21 (stereo not drawn)
→ 44	-1.4	22	-0.12
14. COc1ccc(NC(=O)N(C)C[C@@H]2Oc3c(NC(=O)NC4CCCCC4)cccc3C(=O)N([C@H](C)CO)C[C@H]2C)cc1
→ 2	-0.8	-16	0.56
15. Cc1ccc(S(=O)(=O)Nc2ccc3c(c2)C(=O)N([C@@H](C)CO)C[C@H](C)[C@H](CN(C)C(=O)Nc2cccc4ccccc24)O3)cc1
→ 14	-0.6	.	-0.034
16. COC(=O)c1cc(O)cc(OC)c1C(=O)c1c(O)cc(C)cc1O
→ 3	-1.3	-20	-0.4
17. CCOC(=O)c1sc(SCc2c(Cl)cccc2Cl)c(S(=O)(=O)C(C)C)c1N
→ 1	-5.5	51	0.25
18. COc1ccc(OC)c(S(=O)(=O)Nc2ccc(O)c3ccccc23)c1
→ 70	-13	.	.
19. COc1ccccc1OCC(=O)Nc1cc(C(=O)Nc2ccccc2C(=O)O)ccc1C
→ -13	-1.8	.	.
20. Cc1ccc2c(c1)c1nnc(SCCN3CCCCC3)nc1n2C
→ 22	-0.1	.	.
21. CC(C)N(C(=O)NCc1ccccc1)C(C)C
→ 5	0.0	-1	-0.66
22. Cc1noc(C)c1S(=O)(=O)Nc1ccc2c(c1)CC(=O)N([C@@H](C)CO)C[C@H](C)[C@H](CN(C)S(=O)(=O)c1c(C)noc1C)O2
→ -4	-0.6	.	0.074
23. C[C@@H]1CN([C@H](C)CO)C(=O)c2cc(NC(=O)C3CC3)ccc2O[C@@H]1CN(C)C(=O)Nc1cccc2ccccc12
→ -6	.	14	-0.24
24. COc1ccc(NC(=O)Nc2cccc3c2O[C@H](CN(C)Cc2ccc(C(F)(F)F)cc2)[C@@H](C)CN([C@@H](C)CO)C3=O)cc1
→ 7	0.0	-14	-0.1
25. COc1ccc(-c2coc3c(CC=C(C)C)c(O)c(OC)cc3c2=O)cc1
→ .	.	47	0.32
26. Cc1noc(C)c1NC(=O)N(C)C[C@H]1Oc2c(NC(=O)Nc3ccc4c(c3)OCO4)cccc2C(=O)N([C@H](C)CO)C[C@H]1C
→ 0	1.4	-4	0.052
27. Cc1nn(CCCC(=O)O)c(C)c1[N+](=O)[O-]
→ -14	1.9	.	.
28. COc1ccc(NC(=O)Nc2cccc3c2O[C@H](CN(C)C)[C@H](C)CN([C@H](C)CO)C3=O)cc1
→ -27	1.2	-15	-0.084
29. C[C@H]1CN([C@@H](C)CO)C(=O)Cc2cc(NC(=O)CCN3CCOCC3)ccc2O[C@H]1CN(C)S(C)(=O)=O
→ -12	1.2	.	-0.31
30. Cc1ccc(S(=O)(=O)Nc2cccc3c2O[C@@H](CN(C)S(=O)(=O)c2ccc(C)cc2)[C@@H](C)CN([C@H](C)CO)C3=O)cc1
→ 17	.	12	-0.54

Whole records from above.
Shown for `COc1ccc(NC(=O)Nc2cccc3c2O[C@H](CN(C)Cc2ccc(C(F)(F)F)cc2)[C@@H](C)CN([C@@H](C)CO)C3=O)cc1` → MITF inhib: 7; PD-1 reversal: 0.0; Shh pathway inh: -14; YB-1 expr inh: -0.1
Shown for `Cc1nn(CCCC(=O)O)c(C)c1[N+](=O)[O-]` → MITF inhib: -14; PD-1 reversal: 1.9; Shh pathway inh: .; YB-1 expr inh: .

(further entries)
Below each compound – MITF inhib	PD-1 reversal	Shh pathway inh	YB-1 expr inh
31. C=CCN1CCN(c2nc3ccccc3nc2C#N)CC1
→ 3	-0.1	-8	-0.65
32. C[C@H]1CN([C@@H](C)CO)C(=O)Cc2cc(N(C)C)ccc2O[C@@H]1CN(C)Cc1ccc2c(c1)OCO2
→ -3	.	3	0.42
33. COc1ccc(CN(C)C[C@@H]2Oc3c(NC(=O)Nc4ccc5c(c4)OCO5)cccc3C(=O)N([C@H](C)CO)C[C@@H]2C)cc1
→ -17	3.2	-4	0.17
34. Cc1nc(SCC(=O)O)c2c3c(sc2n1)CCCC3
→ -1	0.1	-6	-0.31
35. CS(=O)(=O)N(CC(=O)O)c1ccc(C23CC4CC(CC(C4)C2)C3)cc1
→ -14	0.0	.	.
36. COC(=O)COc1cccc(NC(=O)c2ccccc2)c1
→ 6	-1.6	.	.
37. C[C@H](CO)N1C[C@H](C)[C@H](CN(C)Cc2ccc(C(=O)Nc3ccccc3N)cc2)Oc2ccc(NS(=O)(=O)c3cccs3)cc2C1=O
→ 24	-2.1	.	-0.38
38. C[C@H]1CN([C@@H](C)CO)C(=O)Cc2cc(NC(=O)Nc3ccccc3)ccc2O[C@@H]1CN(C)Cc1ccncc1
→ -21	2.1	-5	0.014
39. COc1ccc(C)cc1NC(=O)CSc1nnc(-c2ccc(Br)cc2)o1
→ 12	2.4	.	.
40. COc1ccc(/C=N/n2cnnc2)cc1
→ 2	-0.4	.	-0.86
41. CN1CCN(CCCN2C(=O)CSC2c2ccc(F)cc2)CC1 (stereo not drawn)
→ 2	0.6	-27	-0.63
42. Cc1noc(C)c1NC(=O)N(C)C[C@@H]1Oc2c(NC(=O)Nc3ccc(C(F)(F)F)cc3)cccc2C(=O)N([C@@H](C)CO)C[C@@H]1C
→ 4	1.2	-22	-0.2
43. Cc1ccc(S(=O)(=O)N(C)C[C@H]2Oc3ccc(NC(=O)NC(C)C)cc3CC(=O)N([C@H](C)CO)C[C@H]2C)cc1
→ -2	-2.7	8	0.0021
44. COC(=O)c1ccccc1NC(=O)C(C)NS(=O)(=O)c1ccc(Cl)cc1 (stereo not drawn)
→ -4	-0.4	.	.
45. O=C(Oc1ccc(C=Nc2ccc(F)cc2)cc1)c1ccco1
→ -2	1.5	0	0.13
46. C[C@H]1CN([C@@H](C)CO)C(=O)Cc2cc(NC(=O)Nc3cccc4ccccc34)ccc2O[C@@H]1CN(C)Cc1ccccc1
→ 18	2.3	9	-0.23
47. On1c(-c2ccccc2Cl)nc2c1CCc1nonc1-2
→ -10	0.0	-10	0.28
48. CC(=O)O[C@H]1C[C@@]2(C)[C@@H](C[C@@H](O)[C@H]3[C@@]4(C)CC[C@@H](O)[C@@H](C)C4CC[C@@]32C)/C1=C(\CCC=C(C)C)C(=O)O (stereo partly drawn)
→ -10	.	10	0.18
49. Cc1noc(C)c1NC(=O)Nc1ccc2c(c1)C(=O)N([C@H](C)CO)C[C@H](C)[C@H](CN(C)S(C)(=O)=O)O2
→ 1	0.6	-6	-0.32
50. Cc1noc(C)c1S(=O)(=O)Nc1cccc2c1O[C@@H](CN(C)Cc1ccc(Oc3ccccc3)cc1)[C@@H](C)CN([C@H](C)CO)C2=O
→ 10	-2.3	-1	2
51. C[C@H](CO)N1C[C@H](C)[C@H](CN(C)S(=O)(=O)c2cccs2)Oc2c(NC(=O)Nc3ccc(C(F)(F)F)cc3)cccc2C1=O
→ 27	-2.0	15	-0.43
52. Cc1ccc(NC(=O)CSc2ncnc3sc(C)c(C)c23)cc1
→ -6	-2.0	.	.
53. Cc1nonc1OCCNc1cc(N2CCOCC2)ccc1[N+](=O)[O-]
→ -95	0.0	.	.
54. Cc1cc(Br)cc(C)c1OCC(=O)Nc1sc(C)c(C)c1C(N)=O
→ 2	-1.1	.	.
55. Cc1noc(C)c1S(=O)(=O)Nc1ccc2c(c1)C(=O)N([C@@H](C)CO)C[C@@H](C)[C@@H](CN(C)Cc1ccc3c(c1)OCO3)O2
→ 2	0.5	5	0.17
56. C[C@@H]1CN([C@H](C)CO)C(=O)Cc2cc(NC(=O)Nc3ccccc3)ccc2O[C@@H]1CN(C)Cc1ccc(C(F)(F)F)cc1
→ 7	-8.8	1	-0.11
57. C[C@H]1CN([C@@H](C)CO)C(=O)c2cc(NC(=O)NC3CCCCC3)ccc2O[C@@H]1CN(C)C(=O)Nc1ccc(C(F)(F)F)cc1
→ 1	-1.5	20	-0.021
58. Cc1cc(C(=O)SCc2ccccc2)nn1Cc1c(Cl)cccc1Cl
→ -1	-1.7	-22	0.21
59. C[C@@H]1CN([C@@H](C)CO)C(=O)Cc2cc(NC(=O)Nc3ccc(C(F)(F)F)cc3)ccc2O[C@@H]1CN(C)C(=O)Nc1ccc(F)cc1
→ 23	-3.4	-2	-0.11
60. S=c1[nH]nc(Cc2ccccc2)n1Cc1ccccc1
→ 13	-0.3	24	-0.14
61. CN1CCN(C(CC(=O)Nc2cccc(O)c2)C(=O)O)CC1 (stereo not drawn)
→ 3	-0.3	.	.
62. COc1ccc2nc(SCC(=O)NC3CCCCC3)[nH]c2c1
→ -2	2.0	.	.
63. CC12CC34CC(O)C5C(CO)(CO)CC(=O)CC5(C)C3CC1C2C4 (stereo not drawn)
→ .	.	27	-0.021
64. COc1ccc(NC(=O)Nc2ccc3c(c2)CC(=O)N([C@H](C)CO)C[C@@H](C)[C@@H](CN(C)S(=O)(=O)c2c(C)noc2C)O3)cc1
→ -24	-1.7	-53	-2.9
65. Cc1ccc(S(=O)(=O)N(C)C[C@@H]2Oc3ccc(NS(=O)(=O)c4c(C)noc4C)cc3CC(=O)N([C@H](C)CO)C[C@H]2C)cc1
→ -1	-0.2	-65	-0.14
66. C[C@H]1CN([C@@H](C)CO)C(=O)Cc2cc(N(C)C)ccc2O[C@@H]1CN(C)S(=O)(=O)c1ccccc1
→ -23	.	-9	-0.012
67. O=C(COc1ccc(S(=O)(=O)N2CCCC2)cc1Cl)Nc1ccc2c(c1)OCCO2
→ 27	0.5	.	.
68. Cc1ccc(-n2c(C)nnc2SCC(=O)Nc2cccc(C(F)(F)F)c2)cc1
→ -8	-1.8	.	.
69. O=C(Cn1c2ccccc2n2nc(-c3ccccc3)nc12)c1ccccc1
→ 20	0.1	.	.
70. C[C@H]1CN([C@@H](C)CO)C(=O)Cc2cc(NS(=O)(=O)c3ccc(F)cc3)ccc2O[C@@H]1CN(C)CC1CCCCC1
→ 7	-1.4	21	0.31
71. C[C@@H]1CN([C@H](C)CO)C(=O)c2cccc(NS(=O)(=O)c3cccs3)c2O[C@@H]1CN(C)S(=O)(=O)c1cn(C)cn1
→ -6	1.2	-51	-0.25
72. Cc1cc2nc(SCc3nc4ccccc4[nH]3)[nH]c2cc1C
→ -48	-3.3	.	.
73. COc1ccc(NC(=O)N(C)C[C@H]2Oc3ccc(NC(=O)CCCN(C)C)cc3C(=O)N([C@H](C)CO)C[C@@H]2C)cc1
→ -13	2.6	.	-0.25
74. Cc1noc(C)c1NC(=O)Nc1ccc2c(c1)CC(=O)N([C@@H](C)CO)C[C@@H](C)[C@@H](CN(C)Cc1ccccc1)O2
→ -2	.	-7	-0.015
75. O=C(CCCCCCCCc1ccccc1)c1c(O)cc(O)cc1O
→ .	.	-7	1.3

Compound activity (PubChem)

This is a subset; count on the stated rates, not on these rows.
